NPYLR7 ag – agonists of mosquito NPYLR7 receptor, primary screen, cell-based, Aedes aegypti, calcium fluorescence, mosquito biting behavior; Aedes aegypti neuropeptide Y-like receptor 7 (NPYLR7); HEK293T NPYLR7/Galpha15, GCaMP6s calcium fluorescence; activation, % at 10 µM; actives 0.15% (n = 270,000); AID 1259423, 2018; in the data active = activation above about 40%;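 note: 0% = vehicle and 100% = reference agonist at the receptor; some compounds past the cut are filed as inactive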
NPYLR7 ag max-min – further read-out of NPYLR7 ag, marked with its call; activation, %; measured here: Max-Min RFU normalised activation; some inactives read as strong as hits;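 span of the calcium signal over five minutes; 0% = vehicle and 100% = native peptide agonist; compound fluorescence can raise it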
* hit, by the source's call; & = joins results of further samples. The list is partial; rates above refer to the full screens.

[1] COC(=NCCCc1ccccc1)NC(=O)c1cccc(C(F)(F)F)c1
[2] O=C(O)c1sc(-c2ccccc2)cc1NC(=O)C1CC1
[3] Cc1ccc(-c2nc(CN3CCCC(N4CCNC4=O)C3)cs2)o1 (centres undefined)
[4] O=c1[nH]sc2ccccc12
[5] O=C(CCC(=O)N1CCCCCCCC1)NC1CCCC1
[6] CC(C)CC(=O)Nc1cc(Br)ccc1-n1cncn1
assay / compound	1	2	3	4	5	6
NPYLR7 ag max-min	17	-17	-23	-4	4	-28
NPYLR7 ag	17	-21	-23	-3	7	-30

[7] Nc1nc(N)nc(COC(=O)c2cccs2)n1
[8] O=C(Nc1cnn(-c2ccc(C(=O)N3CCOc4ccccc4C3)cc2)c1)C1CCOCC1
[9] COc1cc(C2=N/C(=C/N3CCOCC3)C(=O)O2)cc(OC)c1OC
[10] CCOc1ccccc1N1CCN(C(=O)c2cc(-c3ccc(F)cc3)nn2-c2ccc(F)cc2)CC1
[11] O=C(CCCn1cncn1)NC1CCCc2nc(-c3ccccc3)ncc21 (centres undefined)
[12] Cc1nc2n(n1)C(=O)C(C(c1ccc(Cl)cc1)N1CCN(CCO)CC1)S2 (centres undefined)
assay / compound	7	8	9	10	11	12
NPYLR7 ag max-min	44	9	10	7	5	2
NPYLR7 ag	2	21	14	-1	19	2

[13] Cc1cnc(-c2cccc(NC(=O)N3CCC4CCC(C3)N4C)c2)o1 (centres undefined)
[14] COc1cc(F)c(-c2nccn2CCO)c(F)c1
[15] CCCc1nc(C)sc1C(=O)Nc1cccc(Oc2ncccc2C(=O)OCC)c1
[16] CNc1cnc(-c2cc(OC)ccc2OC)cn1
[17] CCOC(=O)C1CCc2sc(NC(=O)c3csc(-c4cc5ccccc5[nH]4)n3)nc21 (centres undefined)
[18] COc1cc(C(O)(c2nc3ccccc3s2)C(F)(F)F)c(OC)cc1N (centres undefined)
assay / compound	13	14	15	16	17	18
NPYLR7 ag max-min	-6	-3	-16	3	-3	11
NPYLR7 ag	-8	2	-11	5	-1	5

[19] COc1cccc(CN(C)C(=O)c2sc(=O)n(Cc3c(C)cccc3C)c2C)c1
[20] CC(C)(C)c1ccc(O)c(CN2CCOC3(CNCCOC3)C2)c1 (centres undefined)
[21] COc1ccc(NC(=O)Cc2csc(NC(=O)c3ccc[nH]c3=O)n2)c(OC)c1
[22] COc1ccc(S(=O)(=O)Oc2ccc(CN(C(=O)Nc3ccccc3OC)C3CC3)cc2)cc1
[23] CCc1c(C)n([O-])c2c([n+]1=O)CCCC2
[24] Cc1cccc2sc(NC(=O)C3CC4CCC3C4)nc12 (centres undefined)
assay / compound	19	20	21	22	23	24
NPYLR7 ag max-min	6	9	11	22	-7	0
NPYLR7 ag	11	12	7	17	-3	-1

[25] CN(Cc1csc(-c2ccc(C(F)(F)F)cc2)n1)Cc1cccc2ccccc12
[26] CC(CCc1ccccc1)NC(=O)c1cc(-c2ccc(F)cc2)nc2cc(-c3ccccc3)nn12 (centres undefined)
[27] CCOC(=O)c1cn[nH]c1S(=O)(=O)Nc1ccccc1CC
[28] COC(=O)C1CCN(C(c2cccc(OC)c2)C2Sc3ncnn3C2=O)CC1 (centres undefined)
[29] CCOc1ccc(NC(=O)CSc2ncc(S(=O)(=O)c3ccc(C)cc3C)c(=O)[nH]2)cc1
[30] CCCSc1ncccc1C(=O)NCCc1ccc(O)cc1
assay / compound	25	26	27	28	29	30
NPYLR7 ag max-min	5	12	4	9	-6	-13
NPYLR7 ag	4	-2	10	12	-3	-6

[31] COc1ccc(N2CCN(C(=O)c3ccc(Oc4nc(Cc5ccc(C)cc5)ns4)cc3)CC2)cc1
[32] COC(=O)c1c(NC(=O)c2cc3nc(-c4cccs4)cc(C(F)(F)F)n3n2)sc2c1CCC(C)C2 (centres undefined)
[33] CCc1cc(NS(=O)(=O)c2cc(C(=O)OC)n(C)c2)n[nH]1
[34] Cc1c(NC(=O)c2ccccc2[N+](=O)[O-])cccc1-c1nc2cc(Cl)ccc2o1
[35] FC(F)(F)c1cccc(-c2nc3c(N4CCOCC4)nccc3[nH]2)c1
[36] CN1CCN(S(=O)(=O)c2ccc(Sc3ccc(F)cc3F)nc2)CC1
assay / compound	31	32	33	34	35	36
NPYLR7 ag max-min	11	-15	2	-1	-9	1
NPYLR7 ag	14	-9	5	-4	-4	1

[37] C/C(=N/OC(=O)c1cccc([N+](=O)[O-])c1)c1cccn1C
[38] C=CCNC(=O)N1CCC(=O)N(C)c2ccccc2C(OCC(=O)OCC)C1 (centres undefined)
[39] O=C(c1cnc(N2CCC3CCCCC32)c(Cl)c1)N1CCOCC1 (centres undefined)
[40] CCOC(=O)C1CCN(C(c2ccc(F)cc2)c2c(O)cc(C)n(Cc3ccccc3)c2=O)CC1 (centres undefined)
[41] CCOC(=O)C1(CCOc2ccccc2)CCN(Cc2cccc3nccnc23)CC1
[42] OCCn1ccnc1-c1cnc(NCC2CCCO2)nc1 (centres undefined)
assay / compound	37	38	39	40	41	42
NPYLR7 ag max-min	11	15	4	3	-1	1
NPYLR7 ag	11	5	4	5	3	1

[43] CCCCNC(=O)c1c(N)n(/N=C\c2ccc(OC)c(OC)c2)c2nc3ccccc3nc12
[44] COc1cc(C=NNc2nc(C)cc(=O)[nH]2)cc(OC)c1O
[45] CCN(CC)C(=O)c1ccc2sc([C@H]3C[C@H](O)[C@@H](CO)O3)nc2c1
[46] Cc1cccc(C)c1OC1CN(C(=O)CCn2cncn2)C1
[47] CCCCNC(=O)c1cn(CC)cc2c(=O)n(-c3ccccc3)nc1-2
[48] O=S1(=O)CCC(N2C(=S)SC3CS(=O)(=O)CC32)C1 (centres undefined)
assay / compound	43	44	45	46	47	48
NPYLR7 ag max-min	-2	42	-1	2	4	-3
NPYLR7 ag	9	1	1	3	7	-3

Reformatted: entries from further up.
No. | Molecule | NPYLR7 ag max-min | NPYLR7 ag
37 | C/C(=N/OC(=O)c1cccc([N+](=O)[O-])c1)c1cccn1C | 11 | 11
38 | C=CCNC(=O)N1CCC(=O)N(C)c2ccccc2C(OCC(=O)OCC)C1 (centres undefined) | 15 | 5
39 | O=C(c1cnc(N2CCC3CCCCC32)c(Cl)c1)N1CCOCC1 (centres undefined) | 4 | 4
40 | CCOC(=O)C1CCN(C(c2ccc(F)cc2)c2c(O)cc(C)n(Cc3ccccc3)c2=O)CC1 (centres undefined) | 3 | 5
41 | CCOC(=O)C1(CCOc2ccccc2)CCN(Cc2cccc3nccnc23)CC1 | -1 | 3
42 | OCCn1ccnc1-c1cnc(NCC2CCCO2)nc1 (centres undefined) | 1 | 1
43 | CCCCNC(=O)c1c(N)n(/N=C\c2ccc(OC)c(OC)c2)c2nc3ccccc3nc12 | -2 | 9
44 | COc1cc(C=NNc2nc(C)cc(=O)[nH]2)cc(OC)c1O | 42 | 1
45 | CCN(CC)C(=O)c1ccc2sc([C@H]3C[C@H](O)[C@@H](CO)O3)nc2c1 | -1 | 1
46 | Cc1cccc(C)c1OC1CN(C(=O)CCn2cncn2)C1 | 2 | 3
47 | CCCCNC(=O)c1cn(CC)cc2c(=O)n(-c3ccccc3)nc1-2 | 4 | 7
48 | O=S1(=O)CCC(N2C(=S)SC3CS(=O)(=O)CC32)C1 (centres undefined) | -3 | -3

More records follow:
[49] O=C1NC(=S)S/C1=C1\C(=O)N(Cc2ccccc2F)c2ccccc21
[50] Cc1ccsc1[C@@H]1CCN(Cc2ccc(CN(C)S(C)(=O)=O)o2)C[C@H]1O
[51] CC(C)c1cc(NCc2ccccn2)n2c(nc3ccccc32)c1C#N
[52] O=C(Nc1sc2c(c1C(=O)Nc1ccccc1)CCCC2)c1ccccc1Cl
[53] OCCN1CCN(CCN2CCn3c2nc2ccccc23)CC1
[54] Cc1onc2c(=O)n(C)nc(C(=O)N3CCN(C)CC3C)c12 (centres undefined)
assay / compound	49	50	51	52	53	54
NPYLR7 ag max-min	-18	-5	0	-5	-2	2
NPYLR7 ag	-16	-3	4	-4	-1	8

[55] CC(c1ccccc1)N1CCN(C(=O)c2csc3ccccc23)CC1 (centres undefined)
[56] Cc1nnc(SCC(=O)NC(c2ccc(Cl)cc2)c2cccnc2)s1 (centres undefined)
[57] Cc1c(C(=O)N2CCC(C(=O)NC3CC3)CC2)oc2ccc(Cl)cc12
[58] CCc1cc(N2CCCCC2CCO)nc(-c2ccncc2)n1 (centres undefined)
[59] CCN(CC)C(=O)c1cccc(-c2ccc3c(c2)COCC(=O)N3CCN2CCOCC2)c1
[60] CCn1c(C)nnc1CN(C)C1CCN(CCc2ccncc2)C1 (centres undefined)
assay / compound	55	56	57	58	59	60
NPYLR7 ag max-min	-3	1	-1	-10&1	1	-2
NPYLR7 ag	5	3	4	-9&4	0	0

Single values from the results shown:
Under NPYLR7 ag max-min, cpd 56 has 1
Under NPYLR7 ag max-min, cpd 57 has -1

Additional entries.
[61] CCCN(Cc1nnc(-c2ccco2)o1)C(=O)CNC(=O)C12CC3CC(CC(C3)C1)C2
[62] O=C(Nc1ccc(Br)c(C(F)(F)F)c1)C1=COCCO1
[63] CCOC(=O)C1CCCN(C(=O)CC2CSc3nc4c(c(=O)n32)CCC4)C1 (centres undefined)
[64] CCOCCCNC(=O)c1cc(NC(=O)Nc2ccccc2OC)ccc1N1CCC(Cc2ccccc2)CC1
[65] O=C(NS(=O)(=O)c1ccc2c(c1)OCCO2)C1(c2ccc(F)cc2)CCC1
[66] N#CC1(c2ccccc2)CCC2(CC1)N=C(N)Nc1nc3cc4c(cc3n12)OCCCO4 (centres undefined)
assay / compound	61	62	63	64	65	66
NPYLR7 ag max-min	1	-6	-4	2	28	14
NPYLR7 ag	1	-5	-3	-4	0	9

[67] COc1cc(C=NNC(=S)NN=Cc2cc(OC)c(OC)c(OC)c2)cc(OC)c1OC
[68] CC(C)CC(NC(=O)C(COC(C)(C)C)NC(=O)C(Cc1ccc(O)cc1)NC(=O)C(CO)NC(=O)C(Cc1c[nH]c2ccccc12)NC(=O)C(Cc1cnc[nH]1)NC(=O)C1CCC(=O)N1)C(=O)N[C@@H](CCCN=C(N)N)C(=O)N1CCCC1C(=O)NNC(N)=O (some centres undefined)
[69] CN1CCN(c2ccccc2NC(=O)C2CCCN(S(=O)(=O)c3ccc(Cl)cc3)C2)CC1 (centres undefined)
[70] Cc1ccsc1C(=O)N1CCOc2ccc(CN3CCCC3)cc2C1
[71] CCCCCCCC(=O)N(CC(=O)NCC(=O)Nc1ccc(C)cc1)Cc1ccc(F)cc1
[72] CN(Cc1ccsc1)C(=O)Nc1ccc(C(F)(F)F)cc1
assay / compound	67	68	69	70	71	72
NPYLR7 ag max-min	-1	-9	11	-7	26	0
NPYLR7 ag	2	-6	11	-5	22	3

[73] CCNC(=O)O[C@@H]1CO[C@H]2[C@@H]1OC[C@@H]2NCc1cccc(C#N)c1
[74] CC(=O)CSc1nnc(N)s1
[75] O=C(NC1CC1)c1cccc(CSc2nc(Cl)cc(N3CCN(c4ccccc4Cl)CC3)n2)c1
[76] O=C1CN(C(=O)NCc2ccc3c(c2)OCO3)C2CCCCC2N1 (centres undefined)
[77] O=C(/C=C/c1ccc(F)cc1)N(Cc1nc2ccccc2c(=O)[nH]1)CC1CCCO1 (centres undefined)
[78] COc1cccc(-c2cc(C(=O)N3CCN(Cc4ccc5c(c4)OCO5)CC3)n3nc(C(C)(C)C)cc3n2)c1
assay / compound	73	74	75	76	77	78
NPYLR7 ag max-min	-17	6	2	-3	14	-12&16
NPYLR7 ag	-7	0	-5	-3	1	-11&10

[79] CC1CCCCC1N1CNC(=S)NC1 (centres undefined)
[80] COc1cccc(-n2nnc3c(N4CCN(S(=O)(=O)c5ccc(C)cc5C)CC4)ncnc32)c1
[81] Nc1cc(S(=O)(=O)C(F)(F)C(F)(F)C(F)(F)F)cc2c1OCC(=O)N2
[82] CCCc1ccc(-c2nc(C3CCC(C4CCC(CCC)CC4)CC3)no2)cc1 (centres undefined)
[83] C[C@@]12CCC(=O)C[C@@H]1C[C@H](OC(=O)Nc1ccccc1)CC2
[84] O=c1[nH]c(CSc2nncn2-c2ccccc2)nc2ccc(Cl)cc12
assay / compound	79	80	81	82	83	84
NPYLR7 ag max-min	-5	-15	-3	-5	8	-3
NPYLR7 ag	1	-5	-1	2	1	-2

[85] O=C(c1ccc(=O)n(Cc2ccc(F)cc2)n1)N1CCN(c2ccc(F)cc2)CC1
[86] CN1C[C@@H](NC(=O)C2CCC2)C[C@H]1C(=O)NCc1cccc2ccccc12
[87] CCCN(CC(F)(F)F)C(=O)COc1ccc(CC(N)=O)cc1
[88] CCOC(=O)c1cc(-c2cccc(NC(=O)c3cc(Cl)cnc3Cl)c2)n(-c2ccccc2C)n1
[89] O=C(Nc1ccc([N+](=O)[O-])cc1)C1COc2ccccc2O1 (centres undefined)
[90] COc1cc(C2C(S(=O)(=O)NCc3ccccn3)CON2C)ccc1OCc1ccccc1 (centres undefined)
[91] Cc1csc(C(C)n2ccnc2-c2cccc(CN3CCOCC3)c2)n1 (centres undefined)
assay / compound	85	86	87	88	89	90	91
NPYLR7 ag max-min	-3	4	-3	7	-11	2	2
NPYLR7 ag	0	12	-1	14	-8	4	4

Screening results (PubChem BioAssay)
